Vaccinia mCherry = inhibitors of vaccinia virus infection (mCherry reporter signal); AID 720579; Vaccinia virus mCherry reporter infection, fluorescence; about a quarter of the inactives have no number; actives 0.63% (n = 310,000); Potency, µM (titrated, usually from 36.5 µM), for the others: at the highest dose activity change, negative = inhibition, most hits filed as inhibitors; active = well fitted inhibition curve with a large enough effect; inconclusive = small, poorly fitted or top-dose-only effect; inactive = no such curve, though single readings can be large or run the other way; tested in A549 cells; note: nearly all actives have a fitted effect of over 35% in size; inactives centre near -10
Vaccinia Venus = vaccinia inhibition (Venus reporter); Vaccinia virus Venus reporter expression, fluorescence; Potency, µM (series often up to 36.5 µM), for inactives: at the top dose activity change, negative = inhibition, usual class: inhibitors; actives 0.46% (n = 330,000); active means well fitted inhibition curve with a large enough effect; inconclusive means small, poorly fitted or top-dose-only effect; inactive means no such curve, though single readings can be large or run the other way; tested in A549 cells; note: nearly all actives have a fitted effect of over 30% in size; inactives centre near -10
Active calls of the source: *; i = inactive; u = inconclusive; x = not tested or not shown; & = joins results of further samples; [ ] = another dose, or the depositor's remark. % is set by controls: 0 for no effect and ±100 for the full control effect; potency is the fitted concentration of half-maximal effect.

Sample of the layout, two compounds:
compound	Vaccinia mCherry	Vaccinia Venus
CCNC(=O)/C(C#N)=C/c1c(N(Cc2ccccc2)Cc2ccccc2)nc2ccccn2c1=O	-23%	u
CC1CCCC(NC(=O)COC(=O)/C=C/c2ccc(S(=O)(=O)N3CCOCC3)cc2)C1C (stereo not drawn)	i	-8%

Main list, previewed entries included:
compound	Vaccinia mCherry	Vaccinia Venus
CCNC(=O)/C(C#N)=C/c1c(N(Cc2ccccc2)Cc2ccccc2)nc2ccccn2c1=O	-23%	u
CC1CCCC(NC(=O)COC(=O)/C=C/c2ccc(S(=O)(=O)N3CCOCC3)cc2)C1C (stereo not drawn)	i	-8%
Cc1cc(-c2csc(N)n2)c(C)n1-c1ccc(Cl)c(Cl)c1	1%	14%
COC(=O)c1cccnc1NC(=S)NC1CCCCC1	-2%	-4%
COc1ccc(-c2cc(C(=O)NCc3ccccc3)c3c(-c4ccccc4)[nH]nc3n2)cc1	-7%	-3%
FC(F)(F)c1cccc(N2Cc3ccccc3C2)c1	i	-12%
FC(F)(F)c1ccc(NC(=S)NCc2ccccc2)cc1	u	u
COc1ccc2nc(SCc3ccccc3C)nc(C)c2c1	-22%	-6%
CCc1noc(C)c1C(=O)Nc1ccc(S(=O)(=O)N2CCCCC2)cc1	0%	-17%
CN(C1(C)CCS(=O)(=O)C1)S(=O)(=O)c1ccc2ccccc2c1 (stereo not drawn)	i	-5%
COc1ccc(C(=O)NCC(=O)N2CCNC(=O)C2)cc1OC	-12%	-7%
C[n+]1ccccc1/C=N/O	0%&-16%	-7%&2%&-5%
CC(C)[C@H](NC(=O)N1c2ccccc2NC(=O)[C@@H]1C(C)C)C(=O)N[C@@H](Cc1c[nH]c2ccccc12)C(=O)O	i	-13%
COc1ccc(C(=O)CSc2n[nH]c(C)n2)cc1[N+](=O)[O-]	-3%	-5%
C/C(=N\NC(=O)CSc1nc(C)cc(C)n1)c1ccc2c(c1)OCCO2	-11%	-4%
C=CP(=O)(O)c1ccccc1	x	0%
CCN1CCN(c2ncnc3ccc(Br)cc23)CC1	0%	-8%
COc1ccc(-c2cc3ccccc3s2)cc1[C@H]1[C@H]2C=CC[C@@H](C)[C@@H]2C(=O)N1Cc1ccccc1	i	-12%
CCOC(=O)C1CCCN(C(=O)c2cnn(-c3nccc(-c4cc(C)sc4C)n3)c2C)C1 (stereo not drawn)	-11%	0%
Cn1nc(C(F)(F)F)c(C#N)c1N1CCN(c2ccccc2)CC1	x	-12%

Pulled by compound from the list above:
compound	Vaccinia mCherry	Vaccinia Venus
COc1ccc(-c2cc3ccccc3s2)cc1[C@H]1[C@H]2C=CC[C@@H](C)[C@@H]2C(=O)N1Cc1ccccc1	i	-12%
COc1ccc(C(=O)NCC(=O)N2CCNC(=O)C2)cc1OC	-12%	-7%
Cn1nc(C(F)(F)F)c(C#N)c1N1CCN(c2ccccc2)CC1	x	-12%
CCNC(=O)/C(C#N)=C/c1c(N(Cc2ccccc2)Cc2ccccc2)nc2ccccn2c1=O	-23%	u
CCc1noc(C)c1C(=O)Nc1ccc(S(=O)(=O)N2CCCCC2)cc1	0%	-17%
CCOC(=O)C1CCCN(C(=O)c2cnn(-c3nccc(-c4cc(C)sc4C)n3)c2C)C1 (stereo not drawn)	-11%	0%
C[n+]1ccccc1/C=N/O	0%&-16%	-7%&2%&-5%

Entries of single compounds, looked up by structure. Values in the order: Vaccinia mCherry, Vaccinia Venus
CCc1noc(C)c1C(=O)Nc1ccc(S(=O)(=O)N2CCCCC2)cc1 as listed: 0%, -17%
COc1ccc(-c2cc(C(=O)NCc3ccccc3)c3c(-c4ccccc4)[nH]nc3n2)cc1 as listed: -7%, -3%

(next part)
compound	Vaccinia mCherry	Vaccinia Venus
COc1cccc(C(=O)COC(=O)c2cc(-c3cccs3)nc3ccccc23)c1	-11%	-11%
COc1cc(C(=S)N2CCC(C(N)=O)CC2)ccc1O	u	-27%
CCOC(=O)C1=C(C)NC(C)=C(C(=O)OCC)C1c1ccc(O)cc1	x	-3%
COc1ccc(Nc2ncc(C(=O)N3CCN(c4ccc(OC)cc4)CC3)c3ccccc23)cc1	-23%	-24%
CCOC(=O)[C@]12CCC=C1N(CCC1=CCCCC1)C(=O)[C@H](CC(=O)N1CCC(c3ccccc3)CC1)C2	11%	-15%
O=C(Nc1c2c(nn1-c1ccccc1)CS(=O)(=O)C2)c1ccccc1Br	-12%	-13%
O=C(CSc1nc2ccccc2c2nc(-c3ccccc3)nn12)Nc1ccc(F)cc1	-7%	-8%
CCN(CC)S(=O)(=O)c1ccc(S(=O)(=O)N2CCCC(C(=O)NC3CC3)C2)cc1 (stereo not drawn)	i	-8%
O=C(NC1CC(=O)N(c2ccc(Cl)cc2)C1)C(=O)c1c[nH]c2ccccc12 (stereo not drawn)	-20%	-19%
CN(C(=O)CSc1nc2ccc(NC(=O)COc3ccccc3)cc2s1)c1ccccc1	u	u
Cc1nc(-c2coc3cc(C)c(N=O)c(O)c3/c2=N\N)cs1	0%	-1%
CCOC(=O)[C@H](CCc1ccccc1)N[C@@H](C)C(=O)N1CCC[C@@H]1C(=O)O	i	-7%
CCc1nnc(NC(=O)CSc2nnc(-c3c[nH]c4ccccc34)n2CC)s1	i	-19%
O=C(COC(=O)C1CCCN1C(=O)c1cccs1)c1ccccc1 (stereo not drawn)	x	u
O=c1c(C=NCc2cccs2)c(O)n(C2CCCCC2)c(=O)n1C1CCCCC1	-9%	-4%
O=C(CSc1cccc2cccnc12)Nc1ccc(S(=O)(=O)N2CCOCC2)cc1	u	-14%
CCc1ccc(Nc2c([N+](=O)[O-])c(=O)oc3ccccc23)cc1	-21%	u
CC(C)(C)C1CCc2c(sc(NC(=O)CCC(=O)O)c2C(=O)Nc2ccccc2C(F)(F)F)C1 (stereo not drawn)	4%[7.34 µM]	-1%[7.34 µM]
N#C/C(=N\Nc1ccc(Cl)cc1)C(=N)N1CCCCC1	x	-33%
O=C(O)c1ccc2c(c1)CC(c1ccccc1)OC2=O (stereo not drawn)	-4%	3%

Going on with the list.
Below each SMILES: Vaccinia mCherry | Vaccinia Venus
> O=C1NC(=O)N(c2ccc3c(c2)OCO3)C(=O)/C1=C/c1ccc(N2CCCC2)o1
    -22% | 7%
> COc1cccc(Nc2nc(CN)cs2)n1
    i | -5%
> CCOC(=O)C1=C(c2ccccc2)N(C)C(=O)NC1c1ccc(O)c(OC)c1 (stereo not drawn)
    -12% | -19%
> CNc1nc2c3ccccc3n(C(C)=O)c2s1
    x | -6%
> Cc1ccc2[nH]ccc(=O)c2c1
    -12% | -5%
> Cc1c(C(=O)Nc2ccc(F)cc2)oc2ccc(S(=O)(=O)N3CCCCCC3)cc12
    -26% | -30%
> COc1cccc(NC(=O)Cn2c(=O)n(-c3cc(OC)c(OC)c(OC)c3)c(=O)c3ccccc32)c1
    i | -15%
> O=C(NCc1cccs1)c1ccc2nc([C@@H]3O[C@H](CO)[C@H](O)[C@H](O)[C@H]3O)[nH]c2c1
    i | 7%
> O=C(Cc1ccccc1Cl)N1CCOCC1
    i | -15%
> COc1ccc(-c2csc3ncnc(Oc4cccc5ccc(C)nc45)c23)cc1
    -24% | -17%
> C/C(=N\NC(=O)c1cccs1)c1ccc2c(c1)OCO2
    -8% | -2%
> CCCS(=O)(=O)N1CCC(C(=O)NCCCOCC)CC1
    -15% | -3%
> Cc1ccc2nc(C3CCN(CC(=O)Nc4ccc5c(c4)OCCO5)CC3)[nH]c2c1
    -19% | -14%
> Cc1c(N2CCCC2)cc2c(c1NC(=O)c1ccccc1Cl)C(C)(C)CC2(C)C
    -1% | -7%
> [O-][N+](=Cc1c(Cl)cccc1Cl)CC1(O)CCCCC1
    i | -5%
> COc1ccc(-c2nc(C)c(C(C)=O)n2O)cc1[N+](=O)[O-]
    -8% | -6%
> COCC(C)n1c(SCc2cc(C(=O)OC)c(C)o2)nc2ccccc2c1=O (stereo not drawn)
    -1% | -15%
> COC(=O)c1ccc(CSc2nnc(-c3ccncc3)o2)o1
    u | u
> COc1ccc(/C=N/Nc2c(Cl)cc(Cl)cc2Cl)cc1CN1CCOCC1
    -21% | -19%
> COc1ccc(N2CCN(S(=O)(=O)CCNC(=O)COc3ccccc3OC)CC2)cc1
    -19% | -7%
> O=C1C=C(O)CC2(CCCCC2)C1
    4% | 3%
> CN(Cc1ccccc1)C(=O)C1CCCN(Cc2cccc(Cl)c2)C1 (stereo not drawn)
    11% | -6%
> CC(CC(=O)O)CC(=O)Nc1cc([N+](=O)[O-])ccc1O (stereo not drawn)
    -2% | -5%
> CC(=O)OC1(C(C)=O)CCC2C3CC4OC45CC(O)CCC5(C)C3CCC21C (stereo not drawn)
    -17% | 3%
> COc1cc(C(=O)N2CCN(Cc3ccc4c(c3)OCO4)CC2)cc(OC)c1OC
    -19% | -10%
> Cc1cc([N+](=O)[O-])nn1CCCC(=O)Nc1ccc(Cl)cc1Cl
    -20% | 11%
> Cc1nc(SCC(=O)c2c[nH]c3ccccc23)n[nH]1
    -15% | -14%
> Cc1nn(Cc2ccccc2)c(Cl)c1C(=O)O
    -3% | -4%
> COCCN(Cc1ccco1)C(=O)c1cc2c(Cl)nc3ccc(C)cc3c2s1
    -2% | -9%
> O=C(COC(=O)/C=C/c1ccc(C(F)(F)F)cc1)NCC1CCCCC1
    -12% | -8%

Quoted from the listing.
Cc1c(C(=O)Nc2ccc(F)cc2)oc2ccc(S(=O)(=O)N3CCCCCC3)cc12 @ Vaccinia Venus: -30%
COc1cccc(Nc2nc(CN)cs2)n1 @ Vaccinia Venus: -5%
COc1cccc(NC(=O)Cn2c(=O)n(-c3cc(OC)c(OC)c(OC)c3)c(=O)c3ccccc32)c1 @ Vaccinia Venus: -15%
O=C(Cc1ccccc1Cl)N1CCOCC1 @ Vaccinia Venus: -15%

Carrying on:
Below each SMILES: Vaccinia mCherry | Vaccinia Venus
> Nc1ccc2nc(N3CCOCC3)sc2c1
    -7% | 3%
> Cc1ccc(C)c(NC(=O)CSc2nnc3[nH]c(=O)cc(-c4ccccc4)n23)c1
    -23% | -7%
> CC(=O)c1ccc(-c2ccc(C(=O)NCC3CCCO3)o2)cc1 (stereo not drawn)
    i | -11%
> OC(c1ccccc1)(c1nc(/C=C/c2ccccc2)cs1)C(F)(F)F (stereo not drawn)
    10% | u
> FC(F)(F)C1=CC(c2ccc(Cl)cc2)=NCCN1
    x | -4%
> O=C(Nc1ccc2c(c1)OCO2)C1CC(=O)N(c2cccc(Cl)c2)C1 (stereo not drawn)
    12% | 9%
> CC(=O)N1CCN(CC(O)COc2ccc(OCc3ccccc3)cc2)CC1 (stereo not drawn)
    -20% | -18%
> O=C(Cn1ncc2c3ccccc3n(Cc3ccccc3)c2c1=O)NCc1cccs1
    -10% | -8%
> Cc1c(NC(=O)CSc2nc(-c3ccco3)cc(C(F)(F)F)n2)c(=O)n(-c2ccccc2)n1C
    -5% | -2%
> CCc1ccc(OCCCn2c(CCCNC(=O)C3CCCCC3)nc3ccccc32)cc1
    -19% | -20%
> COCCCn1c2nc3ccccc3nc2c2c(=O)n(Cc3ccc(Cl)cc3)cnc21
    -11% | -3%
> Cc1ccccc1-c1nc(C#N)c(NCc2ccco2)o1
    -18% | -11%
> C/C(=N\NC(=S)NC(C)C)c1ccccc1OC(F)F
    -12% | -13%
> O=C(O)COc1c(Cl)cc(/C=C2\NC(=O)NC2=O)cc1Br
    i | 1%
> O=C(Cc1ccccc1)Nc1ccccc1N1CCOCC1
    x | -4%
> Cc1cccc(NC(=O)c2ccccc2NC(=O)C(C)(C)C)n1
    i | -10%
> CN(C(=O)Nc1ccc(S(=O)(=O)N(C)C)cc1)C1CCCCC1
    u | u
> CCCC(=O)NC(c1ccc(C)cc1)c1ccc2cccnc2c1O (stereo not drawn)
    u | u
> CN(C(=O)c1cccc(NC(=O)Cc2cccc(NC(=O)C3CCN(C(=O)C4CC4)CC3)c2)c1)C1CC1
    -18% | -3%
> COc1ccc(C)cc1NC(=O)CN1C(=O)CCc2cc(S(=O)(=O)N3CCOCC3)ccc21
    -5% | 2%
> COc1ccc(CCNC(=O)C(=O)Nc2ccc(C)c(C)c2)cc1
    -2% | 0%
> CCC(=O)Nc1ccc(CC)cc1-c1nc2ccccc2n(CC(=O)Nc2cccc(OC)c2)c1=O
    -6% | -4%

Source: PubChem (National Center for Advancing Translational Sciences (NCATS))
